ID4 SMM: binders of human ID4 protein | small molecule microarray, Flag-ID4 binding, fluorescence F/B | 31,000 compounds, 1.2% hits | P47928 | calls only;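 active = spot signal over background at p below 0.07 in all four prints; compounds were printed on slides so no solution concentration is given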;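 note: a binder raises fluorescence above local background on the spot; about 2 pmol printed per array spot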
Target sequence (P47928 whole entry, looked up): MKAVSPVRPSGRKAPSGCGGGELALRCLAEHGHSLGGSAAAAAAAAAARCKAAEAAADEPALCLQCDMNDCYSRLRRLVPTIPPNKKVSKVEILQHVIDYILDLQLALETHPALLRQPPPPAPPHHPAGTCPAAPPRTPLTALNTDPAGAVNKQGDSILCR
Calls only; i = inactive. Only part of the results is shown. The share of hits here may be higher or lower than overall.

SMILES | ID4 SMM
COc1ccc(S(=O)(=O)N[C@H]2C=C[C@@H](CC(=O)NCCc3ccccc3)O[C@H]2CO)cc1 | i
CN(CC(=O)Nc1ccc(Oc2ccccc2)cc1)S(=O)(=O)c1ccc(F)cc1 | i
C[C@H](CO)N1C[C@H](C)[C@H](CN(C)CC2CCCCC2)OCc2cnnn2CCCC1=O | i
Cc1c(Cl)cccc1N(CC(=O)Nc1ccc(I)cc1)S(C)(=O)=O | i
C[C@H]1CN([C@@H](C)CO)C(=O)c2cc(C#Cc3ccccc3)cnc2O[C@@H]1CN(C)C(=O)CN(C)C | i
C[C@@H]1CN([C@@H](C)CO)C(=O)c2cccc(NC(=O)C3CCCCC3)c2O[C@@H]1CN(C)CC1CC1 | i
Cc1ccnc(NC(c2ccc([N+](=O)[O-])cc2)c2ccc3ccc(C)nc3c2O)c1 (centres undefined) | i
C[C@H]1CN([C@@H](C)CO)C(=O)c2cc(C3=CCCCC3)cnc2O[C@@H]1CN(C)C(=O)c1ccccc1 | i
CC(C)(C)OC(=O)CC[C@]12N=C(c3ccc(OCCCO)cc3)O[C@H]1c1ccccc1CN(C(=O)c1ccccc1)C2=O | i
O=C(C[C@@H]1CC[C@H](NC(=O)C2CCC2)[C@H](CO)O1)NC1CCC1 | i
CCCNC(=O)N(C)C[C@@H]1Oc2ncc(-c3ccc(OC)cc3)cc2C(=O)N([C@@H](C)CO)C[C@H]1C | i
COc1ccccc1NC(=O)CN(c1ccc(F)cc1)S(C)(=O)=O | i
Cc1ccc(Cl)cc1NC(=O)CCCN1C(=O)c2ccccc2C1=O | i
CC1CCc2c(sc(NC(=O)c3nc4ncccn4n3)c2C(N)=O)C1 (centres undefined) | i
CC(C)NC(=O)N(C)C[C@@H]1OCc2ccccc2-c2ccccc2C(=O)N([C@@H](C)CO)C[C@H]1C | i
CC(=O)c1ccc(NC(=O)CSc2nncn2C)cc1 | i
O=C(CCn1cnc2ccccc2c1=O)Nc1ccc2c(c1)OCCO2 | i
CC(C)NC(=O)N(C)C[C@@H]1Oc2cc(C#CC3CC3)ccc2S(=O)(=O)N([C@H](C)CO)C[C@@H]1C | i
COC(=O)c1sc(=S)n(C)c1C | i
C[C@H]1CN([C@@H](C)CO)C(=O)c2cc(C3=CCCC3)cnc2O[C@@H]1CN(C)Cc1ccccc1 | i
CO[C@@H](CN(C)Cc1ccc(-c2ccccn2)cc1)[C@H](C)CN(C(=O)Nc1ccc(F)cc1)[C@H](C)CO | i
Cc1ccccc1-c1cnc2c(c1)C(=O)N([C@@H](C)CO)C[C@H](C)[C@H](CN(C)Cc1ccccc1F)O2 | i
COc1ccc(-c2cc(=O)[nH]c(SCC(=O)Nc3ccc(Oc4ccccc4)cc3)n2)cc1 | i
CCOc1ccccc1OCC(=O)Nc1ccccc1C(=O)O | i

A run of entries from the list above, as a working copy:
SMILES | ID4 SMM
CC(=O)c1ccc(NC(=O)CSc2nncn2C)cc1 | i
O=C(CCn1cnc2ccccc2c1=O)Nc1ccc2c(c1)OCCO2 | i
CC(C)NC(=O)N(C)C[C@@H]1Oc2cc(C#CC3CC3)ccc2S(=O)(=O)N([C@H](C)CO)C[C@@H]1C | i
COC(=O)c1sc(=S)n(C)c1C | i

Other compounds.
SMILES | ID4 SMM
O=C(c1ccccc1)N1C(=S)C(c2ccccc2)=NC12CCCC2 | i
N=C(N)SCCc1ccc(OCc2ccc([N+](=O)[O-])cc2)cc1 | i
CCC(C)Cn1c(CCCO)nc2ccccc21 (centres undefined) | i
CC(NC(=O)/C=C/C(=O)O)C(=O)NC(C(=O)NC(Cc1c[nH]c2ccccc12)C(=O)O)C(C)c1c[nH]c2ccccc12 (centres undefined) | i
CCCN(C)C[C@H]1Oc2ncc(C#CCN(C)C)cc2C(=O)N([C@H](C)CO)C[C@@H]1C | i
C/C=C/c1ccc2c(c1)O[C@@H](CN(C)C(=O)Nc1ccc(OC)cc1)[C@@H](C)CN([C@H](C)CO)S2(=O)=O | i
COc1ccccc1NC(=O)C1=C(C)Nc2nc(CCCO)nn2C1c1cccnc1 (centres undefined) | i
CNC[C@H]1Oc2cc(-c3ccncc3)ccc2S(=O)(=O)N([C@@H](C)CO)C[C@H]1C | i
CCn1c(SCC(=O)c2cccc([N+](=O)[O-])c2)nnc1-c1ccco1 | i
N#Cc1c(SCC(=O)Nc2ccc(F)cc2Cl)nc2c(c1C(F)(F)F)CCCCC2 | i
C/C=C/c1cnc2c(c1)C(=O)N([C@H](C)CO)C[C@H](C)[C@@H](CN(C)Cc1ccc3c(c1)OCO3)O2 | i
CCC(=O)N(C)C[C@H]1Oc2ncc(C#Cc3ccccc3)cc2C(=O)N([C@H](C)CO)C[C@H]1C | i

Reformatted in CSV form: entries from further up
Compound,ID4 SMM
O=C(CCn1cnc2ccccc2c1=O)Nc1ccc2c(c1)OCCO2,i
CC(C)NC(=O)N(C)C[C@@H]1Oc2cc(C#CC3CC3)ccc2S(=O)(=O)N([C@H](C)CO)C[C@@H]1C,i
COC(=O)c1sc(=S)n(C)c1C,i
C[C@H]1CN([C@@H](C)CO)C(=O)c2cc(C3=CCCC3)cnc2O[C@@H]1CN(C)Cc1ccccc1,i
CO[C@@H](CN(C)Cc1ccc(-c2ccccn2)cc1)[C@H](C)CN(C(=O)Nc1ccc(F)cc1)[C@H](C)CO,i
Cc1ccccc1-c1cnc2c(c1)C(=O)N([C@@H](C)CO)C[C@H](C)[C@H](CN(C)Cc1ccccc1F)O2,i
COc1ccc(-c2cc(=O)[nH]c(SCC(=O)Nc3ccc(Oc4ccccc4)cc3)n2)cc1,i
CCOc1ccccc1OCC(=O)Nc1ccccc1C(=O)O,i
O=C(c1ccccc1)N1C(=S)C(c2ccccc2)=NC12CCCC2,i
N=C(N)SCCc1ccc(OCc2ccc([N+](=O)[O-])cc2)cc1,i
CCC(C)Cn1c(CCCO)nc2ccccc21 (centres undefined),i
CC(NC(=O)/C=C/C(=O)O)C(=O)NC(C(=O)NC(Cc1c[nH]c2ccccc12)C(=O)O)C(C)c1c[nH]c2ccccc12 (centres undefined),i
CCCN(C)C[C@H]1Oc2ncc(C#CCN(C)C)cc2C(=O)N([C@H](C)CO)C[C@@H]1C,i
C/C=C/c1ccc2c(c1)O[C@@H](CN(C)C(=O)Nc1ccc(OC)cc1)[C@@H](C)CN([C@H](C)CO)S2(=O)=O,i
COc1ccccc1NC(=O)C1=C(C)Nc2nc(CCCO)nn2C1c1cccnc1 (centres undefined),i
CNC[C@H]1Oc2cc(-c3ccncc3)ccc2S(=O)(=O)N([C@@H](C)CO)C[C@H]1C,i
CCn1c(SCC(=O)c2cccc([N+](=O)[O-])c2)nnc1-c1ccco1,i
N#Cc1c(SCC(=O)Nc2ccc(F)cc2Cl)nc2c(c1C(F)(F)F)CCCCC2,i
C/C=C/c1cnc2c(c1)C(=O)N([C@H](C)CO)C[C@H](C)[C@@H](CN(C)Cc1ccc3c(c1)OCO3)O2,i
CCC(=O)N(C)C[C@H]1Oc2ncc(C#Cc3ccccc3)cc2C(=O)N([C@H](C)CO)C[C@H]1C,i

(continued)
SMILES | ID4 SMM
COC(=O)C1=C(C)NC(=O)C1(NS(=O)(=O)c1ccc(C)cc1)C(F)(F)F (centres undefined) | i
CCc1ccc(OCC(=O)Nc2cccnc2)c(Br)c1 | i
C[C@H](CO)N1C[C@H](C)[C@@H](CN(C)C(=O)c2cnccn2)Oc2ncc(C#CCC3CCCC3)cc2C1=O | i
COc1cc2c(ccc3cc(OC)c(OC)c(O)c32)cc1O | i
Cc1ccc(NC(=O)COc2ccc(Cl)c(C)c2)c([N+](=O)[O-])c1 | i
COc1ccc(NC(=O)N(C)C[C@@H]2Oc3cc(-c4cccc(C(=O)N(C)C)c4)ccc3S(=O)(=O)N([C@H](C)CO)C[C@H]2C)cc1 | i
Cc1nc(SCC(=O)c2ccc3c(c2)OCCO3)c2c3c(sc2n1)CCC3 | i
C[C@@H]1CN([C@@H](C)CO)C(=O)c2cc(C#Cc3cccc(F)c3)cnc2O[C@@H]1CN(C)CC1CC1 | i
Nc1cccc(C2OCCCO2)c1 | i
Nc1nc(SCC(=O)Nc2ccccc2C(F)(F)F)[nH]c(=O)c1-c1ccccc1 | i
O=C(C[C@H]1C[C@H]2c3cc(NS(=O)(=O)c4ccc(F)cc4)ccc3O[C@H]2[C@@H](CO)O1)NCCc1ccccc1 | i
C[C@@H]1CN([C@H](C)CO)C(=O)c2cc(C3=CCCCC3)cnc2O[C@H]1CN(C)Cc1ccccc1 | i
O=C(CC1NCCNC1=O)Nc1ccc(F)cc1 (centres undefined) | i
Cc1ccc(N(CC(O)Cn2c3ccccc3c3ccccc32)S(C)(=O)=O)cc1 (centres undefined) | i
CC(C)NC(=O)N(C)C[C@H]1Oc2cc(-c3ccncc3)ccc2S(=O)(=O)N([C@@H](C)CO)C[C@@H]1C | i
O=C(C[C@H]1C=C[C@@H](NC(=O)C2CC2)[C@@H](CO)O1)Nc1ccccc1 | i
COc1cccc2c1OC1=C(C(=O)CC(C)(C)C1)C2CC(=O)c1ccc(O)cc1 (centres undefined) | i
C/C=C/c1ccc2c(c1)O[C@@H](CN(C)C(=O)CN1CCOCC1)[C@H](C)CN([C@H](C)CO)S2(=O)=O | i
Cc1ccc(S(=O)(=O)N2C(=O)CCC2C(=O)Nc2ccccc2-c2ccccc2)cc1 (centres undefined) | i
CS(=O)(=O)N(CC(=O)Nc1cccnc1)c1ccc2c(c1)OCCO2 | i
O=C(CSc1nc(-c2ccccc2)c(-c2ccccc2)[nH]1)Nc1ccccc1Cl | i
COC(=O)c1ccc(-n2c(CCC(=O)O)ccc2-c2ccc(OC)cc2)cc1 | i
O=C(C[C@@H]1C=C[C@@H](NC(=O)c2cccc(F)c2)[C@H](CO)O1)NCc1ccccc1 | i

Screens: PubChem, Broad Institute
